gsp antag: antagonists of gsp mutant (McCune-Albright syndrome) | gsp-mutant cells, cAMP HTRF, 30 min; control for the full effect not named in the record | Potency, µM (top dose mostly 76.9 µM), inactives show at the top dose activity change, negative = inhibition, hits mostly inhibitors | 340,000 tested, 0.4% active | AID 624288; active = falling curve of any shape with a large fitted effect; inconclusive = falling curve, mostly with a smaller effect; inactive = flat or rising curve; cell line not stated here;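 note: intracellular cAMP measured with PDE inhibitor Ro 20-1724 present during compound exposure; potency is the fitted concentration of half-maximal effect; % is set by controls: 0 for no effect and ±100 for the full control effect; nearly all actives have a fitted effect of over 65% in size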
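HTRF cAMP measurement after 30 min RT detection following 30 min, 37C compound treatment alongside […] (added as 300 uM solution) in G418-selected cells seeded at 2000/well and grown 16–24 h.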
D2 agonist: agonists of human D2 dopamine receptor (beta-arrestin); P14416; DiscoveRx PathHunter D2 beta-arrestin, luminescence, 90 min; 100% = 57 uM dopamine signal; activation, % (test concentration not listed); 360,000 tested, 0.084% active; AID 624465; in the data active = activation above about 40%; inconclusive = about 15% to 40%; inactive = below about 15%; note: compound concentration not given in the record; the text of the record calls up to 30% inactive
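Agonist mode: compounds alone added to overnight-plated D2 PathHunter cells for 90 min at 37 C, with 57 uM final dopamine (EC100) defining full response. Beta-arrestin recruitment detected by chemiluminescent reagent, read after 1 h at ambient temperature.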
gsp ag: gsp mutant agonism; gsp mutant cells, cAMP HTRF, 30 min; control for the full effect not named in the record; Potency, µM (series often up to 76.9 µM), inactives show top-dose activation (cAMP increase), actives largely listed as activators; AID 624287; 340,000 tested, 0.13% active; active = well fitted activation curve with a large enough effect; inconclusive = small, poorly fitted or top-dose-only effect, or another doubt; inactive = no such curve, though single readings can be large or run the other way; cell line not stated here;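 note: phosphodiesterase inhibitor Ro 20-1724 added with compounds to block cAMP breakdown; potency is the fitted concentration of half-maximal effect; nearly all actives have a fitted effect of over 60% in size; about a fifth of the inactives were tested at one dose only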
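Cells in DMEM/10% FBS with G418 were pretreated with compounds in DMSO plus […] (300 uM stock) for 30 min at 37C. cAMP was measured by HTRF (cAMP-d2 plus anti-cAMP antibody-K) after 30 min at room temperature.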
Six1-Eya2 inh: blocks human Six1 binding to Eya2; 360,000 tested, 0.56% active; AlphaScreen GST-Six1/His-Eya2 binding, biochemical; stronger effect = lower value; control for the full effect not named in the record; activity change, % (concentration not given with the values); Q15475+O00167; in the data active = activity change below about -65%; inconclusive = about -30% to -65%; inactive = above about -30%; note: % is set by controls: 0 for no effect and ±100 for the full control effect
Target sequence (O00167 whole entry, looked up): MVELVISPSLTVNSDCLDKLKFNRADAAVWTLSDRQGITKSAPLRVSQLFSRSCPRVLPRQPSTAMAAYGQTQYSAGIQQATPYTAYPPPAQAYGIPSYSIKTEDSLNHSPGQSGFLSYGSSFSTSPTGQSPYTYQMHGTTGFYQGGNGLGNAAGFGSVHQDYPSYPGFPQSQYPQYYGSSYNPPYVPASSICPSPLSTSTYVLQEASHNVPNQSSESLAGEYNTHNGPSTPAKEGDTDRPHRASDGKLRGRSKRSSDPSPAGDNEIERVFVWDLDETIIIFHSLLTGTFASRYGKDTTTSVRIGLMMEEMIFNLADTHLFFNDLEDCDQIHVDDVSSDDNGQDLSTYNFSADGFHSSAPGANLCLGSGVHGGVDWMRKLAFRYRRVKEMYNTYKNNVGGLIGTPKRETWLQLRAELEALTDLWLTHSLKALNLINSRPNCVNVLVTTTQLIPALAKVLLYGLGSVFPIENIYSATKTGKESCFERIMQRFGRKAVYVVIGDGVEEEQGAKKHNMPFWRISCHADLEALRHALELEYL
Target sequence (Q15475 whole entry, looked up): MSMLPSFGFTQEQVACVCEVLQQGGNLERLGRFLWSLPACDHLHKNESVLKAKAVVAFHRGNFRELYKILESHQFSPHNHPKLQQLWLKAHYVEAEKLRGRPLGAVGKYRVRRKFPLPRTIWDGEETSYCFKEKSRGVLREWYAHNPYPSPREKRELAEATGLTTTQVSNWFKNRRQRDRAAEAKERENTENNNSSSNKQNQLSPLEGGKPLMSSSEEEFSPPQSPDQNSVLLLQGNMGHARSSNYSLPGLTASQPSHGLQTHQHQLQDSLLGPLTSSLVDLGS
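AlphaScreen luminescence read after one hour at 37 °C in darkness. Pin-transferred compounds met GST-Six1 and His-Eya2 protein (5X stock 250 nM/500 nM) plus glutathione donor and Ni-chelate acceptor beads (5X, 50 ug/mL).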
CtBP-E1A inh: blocks the CtBP interaction with E1A; AlphaScreen GST-E1A/His-CtBP binding, 1536-well; stronger effect = lower value; control for the full effect not named in the record; activity change, % (concentration not given with the values); 340,000 tested, 0.49% active; AID 651724; in the data active means activity change below about -65%; inconclusive means about -30% to -65%; inactive means above about -30%; note: % is set by controls: 0 for no effect and ±100 for the full control effect
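AlphaScreen with 125 nM GST-E1A and 125 nM His-CtBP (5X stocks) in Tris pH 8.0, 300 mM NaCl, BSA, Tween 20, TCEP. Compounds preincubated 2 h at 37 deg C, then glutathione donor/nickel acceptor beads added for 1 h at 37 deg C in dark.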
D2 potentiator: positive allosteric modulators of human D2 dopamine receptor. P14416. DiscoveRx D2 beta-arrestin cells, luminescence, 90 min; 100% = 57 uM dopamine signal. potentiation, % (no concentration beside the values). 360,000 tested, 0.23% active. AID 624464; active = potentiation of 50% or more; inconclusive = 30% to 50%; inactive = 30% or less;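 note: compound concentration not given in the record; tested on top of an EC20 dose of dopamine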
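PathHunter D2 cells, attached overnight at 37 deg C, received compound in DMSO plus dopamine at EC20 (50 nM final) for 90 min at 37 deg C. Beta-arrestin recruitment was read as luminescence after 1 h with detection reagent at ambient temperature.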
The depositor's hits bear a star; ? = inconclusive; . = no result given; & = joins results of further samples; [ ] = remark or other dose.

SMILES	gsp antag	D2 agonist	gsp ag	Six1-Eya2 inh	CtBP-E1A inh	D2 potentiator
CCSc1ncnc2c1sc1nc3c(cc12)COC(C)(C)C3	5%	-0.2	17%[15.4 µM]	-13	5	-19
C=CCC1(CC=C)CCCN1C(=O)c1cc(COc2cccc(C(F)(F)F)c2)on1	-17%	-5.2	5%	39	31	-29
Cc1cc(=O)oc2cc(OCC(=O)Nc3cccc(S(=O)(=O)N(C)C)c3)ccc12	16%	0.0	-15%	0	-3	-15
CCn1cc(C(=O)NCCc2ccc(OC)cc2)c(=O)c2ccc(C)nc21	3%	-3.4	-11%[15.4 µM]	-3	6	-7
CCCNc1c(NS(=O)(=O)c2cccs2)c(=O)oc2ccccc12	11%	-0.1	?	5	2	-4
Cc1ccc(NC(=O)COc2ccc(Br)cc2CO)cc1S(=O)(=O)N1CCOCC1	?	4.2	-10%	-7	3	6
Cn1/c(=N/NC(=O)c2cccc(OC(F)F)c2)sc2ccccc21	-13%	-3.0	5%	-1	4	-24
CN(Cc1ccc(C(F)(F)F)cc1)C(=O)C1CCC(=O)N(C2CC2)C1 (stereo not drawn)	9%	-0.2	1%	4	-8	7
CCCC(=O)N1CCCC(c2nc(-c3cccs3)no2)C1 (stereo not drawn)	-16%	-3.9	-25%	1	4	5
COc1ccc(NS(=O)(=O)c2cccc(C(=O)N(C)Cc3cccs3)c2)cc1	?	0.0	-1%	1	5	-16
Cc1ccc(S(=O)(=O)N2[C@@H](c3ccc(Cl)cc3)C(C(=O)O)=CC[C@H]2c2ccc(Cl)cc2)cc1	-9%	2.7	6%	0	10	-3
CN(C)S(=O)(=O)Nc1cccc(NC(=O)CC23CC4CC(CC(C4)C2)C3)c1	3%	-1.7	7%[15.4 µM]	-11	3	-6
CCOC(=O)Cc1csc(NC(=O)CN2C(=O)c3ccccc3C2=O)n1	5%	4.8	-12%[15.4 µM]	9	1	-4
CC1CCN(c2ccc(NC(=O)Cn3c(=O)oc4ccccc43)cc2)CC1	10%	-2.5	-31%[inhibitor]	15	0	1
COc1ccc(S(=O)(=O)NCCc2ccccc2)c2cccnc12	-2%	-0.5	-3%	2	.	2
CC1=CC(C)(C(Cl)(Cl)Cl)C(C)=CC1=NO (stereo not drawn)	.	-11	?	-1	-10	-6
CCOc1ccc(OCC(=O)OCC(=O)NNC(=O)c2ccc([N+](=O)[O-])cc2)cc1	1%	-6.7	9%[15.4 µM]	-4	5	-6
O=C(COC(=O)C1=Cc2ccccc2OC1)NC1CCCC1	1%	-3.7	-31%	1	5	-24
C[C@H](NC(=O)c1ccccc1)C(=O)OCC(=O)c1c[nH]c2ccccc12	7%	-5.9	-53%[inhibitor]	0	-3	2
Cc1ccc(C(=O)CSc2nc3ccccc3c(=O)n2N)o1	-17%	-2.2	-20%	-4	-1	-5
O=C(NNC(=S)Nc1cccc(Cl)c1)c1ccccc1	1%	-7.1	?	-1	-4	-25
CC1CC1C(=O)OCC(=O)Nc1ccc(N=Nc2ccccc2)cc1 (stereo not drawn)	0%	-1.8	6%	?	-19	-27
O=C(O)c1cc(S(=O)(=O)N2CCCCCC2)ccc1Cl	2%	-4.7	-32%[inhibitor]	6	2	-6
COC(=O)c1ccc(OCC(=O)NCCC2=CCCCC2)c(OC)c1	-2%	-1.1	-16%	5	.	-10
CN(C)C(=O)c1ccc(Nc2nnc(-c3ccc(O)cc3)c3ccccc23)cc1	-16%	-1.3	3%	-25	-16	-5
O=C(Nc1ccc([N+](=O)[O-])cc1)c1ccc(S(=O)(=O)N2CCCC2)cc1	2%	3.4	?	5	8	2
COc1cccc(OC)c1NC(=O)Cn1nc(-c2ccc3c(c2)OCCO3)ccc1=O	4%	-2.1	-3%[15.4 µM]	-8	-8	-12
CC(OC(=O)c1ccc(NC(=O)CC#N)cc1)C(=O)Nc1ccc(S(=O)(=O)N2CCCC2)cc1 (stereo not drawn)	.	-1.7	-15%	6	-5	-9
CCCCNC(=O)Cn1cnc2sc(C(=O)OCC)c(C)c2c1=O	-13%	-4.5	21%	-1	7	-14
Cc1ccc(/C=C/C(=O)NCC2COc3ccccc3O2)o1 (stereo not drawn)	-4%	-2.5	-1%[15.4 µM]	-3	1	-13
CN(Cc1ccccc1NS(=O)(=O)c1ccc2ccccc2c1)C1CCCCC1	-17%	-6.2	-14%	4	0	-32
Cc1cc(N2CCN(C)CC2)nc2ccc(NC(=S)N3CCN(c4ccc(F)cc4)CC3)cc12	9%	-4.8	16%	-1	-19	-22
CCOc1ccc(OCCCC(=O)ON=C(N)c2ccccc2Cl)cc1	3%	0.0	6%	18	-3	0
Cc1ccc(NC(=O)C(=O)NCC2CCCN2S(=O)(=O)c2cccs2)c(C)c1 (stereo not drawn)	-13%	3.2	8%	6	-25	5
O=C(Nc1ccc(N2CCOCC2)c(Cl)c1)c1ccc(Br)o1	?	2.9	9%	2	2	9
Cn1c(N2CCOCC2)nc2c1c(=O)n(Cc1ccc(Cl)c(Cl)c1)c(=O)n2C	-19%	-0.8	-2%	-19	-12	-6
Nc1cc2c(cc1Cl)-c1ccc(Cl)cc1C2	-1%	-1.8	0%[15.4 µM]	-14	1	-33
CC(=O)Nc1ccc(C2=NN(C)C(=NCc3ccccc3)SC2)cc1	-34%	-2.6	31%[15.4 µM]	2	5	-3
CCN(CC)CCNC(=O)c1ccc(Cl)c(S(=O)(=O)Nc2ccc(Cl)cc2)c1	2%&10%	-4.1&-0.7	15%&20%	-7&2	0&2	-18&-42
CCN(Cc1nc(-c2ccc(OC)c(OC)c2)no1)C(=O)c1ccc2c(c1)OCO2	-1%	-3.2	11%[15.4 µM]	-2	15	-10
Cc1ccc(NC2CCCN(C(=O)c3cccnc3)C2)cc1C (stereo not drawn)	-4%	3.0	12%	0	1	-4
O=C(O)CCCC(=O)Nc1c(F)c(F)c(F)c(F)c1F	3%	0.2	-1%	-4	7	-13
CC(C)OC(=O)c1cccc(C(=O)Oc2ccc(Br)cc2)n1	-14%	0.2	-6%	-1	3	-12
Cc1nc2ccccn2c1C(=O)c1ccccc1	6%	-0.1	-2%	-1	2	-6
O=C(CN(Cc1ccc(F)cc1)C(=O)CCC(=O)Nc1nccs1)NCC1CCCO1 (stereo not drawn)	-2%	-1.4	-6%[15.4 µM]	8	1	-9
CCOCc1cc(CN2CCC(CCC(=O)NC3CC3)CC2)ccc1OC	5%	-2.7	-14%	1	-4	-4
COc1ccccc1C(CNC(=O)c1cccc(S(=O)(=O)Nc2ccc(C)cc2)c1)N1CCCC1 (stereo not drawn)	3%	-3.5	-4%	-2	-15	-19
CC[C@H](C)C1NC(=O)[C@H](CC(=O)O)NC(=O)c2cc([N+](=O)[O-])cc(I)c2NCCC(C(N)=O)NC1=O (stereo partly drawn)	7%	-2.3	-7%	0	4	-16
O=C(COC(=O)Cc1ccccc1)NCc1ccc2c(c1)OCO2	5%	-3.4	-8%[15.4 µM]	-2	-2	-14
O=C(O)Cn1cc(C(=O)C(F)(F)F)c2ccccc21	1%	0.3	11%	-9	12	-2
CCCN1CCN(C(=O)C2CCCN(c3ncnc4c3nc3n4CCCCC3)C2)CC1 (stereo not drawn)	?	-4.3	?	1	2	-14
CC1(Oc2cccc(C#N)c2)CCN(Cc2ccc(-c3ccccn3)cc2)C1 (stereo not drawn)	.	3.5	.	-14	-15	-9
COc1ccc(C(=O)N2CCN(c3nnnn3-c3ccccc3)CC2)cc1OC	0%	1.4	?	3	9	-3
CSCCC1NC(=O)N(CC(=O)Nc2ccc(-c3ccccc3)cc2)C1=O (stereo not drawn)	3%	-7.0	-18%	0	-8	-18
Oc1cc(O)c(CN2CCOCC2)cc1CN1CCOCC1	14%	-5.6	0%	-1	-3	5
Cc1ccc(OCCn2cc(C(=S)N3CCCC3)c3ccccc32)cc1C	8%	-4.1	18%	-24	-12	1
CCCCCCOc1ccc(N2C(=O)CC(N3CCC(C(=O)OCC)CC3)C2=O)cc1 (stereo not drawn)	-8%	-3.3	22%	1	6	1
COc1ccccc1C(=O)NCC(=O)OCC(=O)N1CC(C)OC(C)C1 (stereo not drawn)	9%	-0.1	13%[15.4 µM]	3	4	1
CN(C(=O)c1cccc(NC(=O)Cc2ccc(NC(=O)C3CCCN(C(=O)C4CCC4)C3)cc2)c1)C1CC1 (stereo not drawn)	4%	-1.5	.	7	2	-6
Cc1n[nH]c(=O)nc1N/N=C/c1cccs1	5%	-5.2	-44%[inhibitor]	-91*	-90*	-16

Limited to Six1-Eya2 inh and CtBP-E1A inh, for some of the entries so far:
compound	Six1-Eya2 inh	CtBP-E1A inh
O=C(COC(=O)Cc1ccccc1)NCc1ccc2c(c1)OCO2	-2	-2
COc1ccc(C(=O)N2CCN(c3nnnn3-c3ccccc3)CC2)cc1OC	3	9
Cc1n[nH]c(=O)nc1N/N=C/c1cccs1	-91*	-90*
Oc1cc(O)c(CN2CCOCC2)cc1CN1CCOCC1	-1	-3
COc1ccccc1C(=O)NCC(=O)OCC(=O)N1CC(C)OC(C)C1 (stereo not drawn)	3	4

Complete entries from above.
Results for `COc1ccc(C(=O)N2CCN(c3nnnn3-c3ccccc3)CC2)cc1OC` = gsp antag = 0%; D2 agonist = 1.4; gsp ag = ?; Six1-Eya2 inh = 3; CtBP-E1A inh = 9; D2 potentiator = -3
Results for `O=C(O)Cn1cc(C(=O)C(F)(F)F)c2ccccc21` = gsp antag = 1%; D2 agonist = 0.3; gsp ag = 11%; Six1-Eya2 inh = -9; CtBP-E1A inh = 12; D2 potentiator = -2

Next section.
SMILES	gsp antag	D2 agonist	gsp ag	Six1-Eya2 inh	CtBP-E1A inh	D2 potentiator
CCN(CC)S(=O)(=O)c1cc(NC(=O)C2=COCCO2)ccc1Cl	0%	-4.3	-5%	1	-16	8
Cn1c(CNc2ccc(Br)cc2)nc2ccccc21	-2%	-5.6	-20%	0	-1	-6
CC(=O)OC1CC2(C)C(CCC2(O)C(C)=O)C2CCC3C(Cl)C(=O)CCC3(C)C12 (stereo not drawn)	-11%	1.9	-10%	3	4	4
COCC(=O)N(C)c1nnc(-c2ccccn2)s1	-4%	-1.3	-21%	-6	-1	0
OC1CCN(C(=S)NCCc2ccccc2)CC1	5%	-0.5	18%	2	1	-4
C/C(=N\OCC(=O)OCC(=O)N(Cc1ccccc1)C(C)(C)C)c1ccc2c(c1)OCO2	-11%	-5.6	-37%	2	7	-27
CCc1ccc(NC(=O)Cc2cn(C)c3ccccc23)cc1	1%	-1.1	-25%	-21	-10	-3
O=C(COC(=O)CNC(=O)c1cc(Cl)cc([N+](=O)[O-])c1)NC(=O)NCc1ccco1	-3%	9.2	-38%[inhibitor]	0	-14	-7
CCCCC(=O)Nc1ccc2c(c1)nc1n2CCN(CCOC)C1	5%	2.9	13%	7	.	0
COc1ccc(C(=O)Nn2c(SCc3ccc([N+](=O)[O-])cc3)nc3ccccc3c2=O)cc1	3%	-3.0	-1%	-14	-14	-14
COc1ccc(-c2cc(C(=O)Nc3cc(OC)c(OC)c(OC)c3)no2)cc1OC	0%	-0.2	3%	2	6	-8
Cc1cc(C)cc(N(C(=O)C2CCCC2)C2C=CS(=O)(=O)C2)c1 (stereo not drawn)	-10%	-1.8	-10%	3	10	-13
